Screening results deposited in PubChem BioAssay by Broad Institute.
DUX4 txn inh – inhibitors of DUX4-driven ZSCAN4 reporter expression, primary screen, 293T cells, Gaussia and Italica luciferase; activity change, negative = inhibition, % (no concentration beside the values); 293T-iDUX4 ZSCAN4-Gaussia luciferase reporter, 24 h; active compounds read low; actives 0.8% (n = 37,000); AID 1224904, 2016;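 active means -10% or lower and over 25 points stronger than a control reporter; inconclusive means -10% or lower with a smaller gap; inactive means above -10%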;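 further: 0% = median of neutral control wells and -100% = median of positive control wells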
DUX4 txn inh difference – recorded beside DUX4 txn inh, whose call it bears; Gaussia minus Italica difference, %; measured here: selective DUX4 reporter inhibition;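 worked out from the two reporters; negative = selective loss of the DUX4 reporter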
DUX4 txn inh control – also measured in DUX4 txn inh; calls as there; activity change, negative = inhibition, %; measured here: Italica tet-on control reporter;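 0 = neutral control and -100 = positive control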
Numbers without * were called inactive; ? = inconclusive; · = no result given.

SMILES	DUX4 txn inh	DUX4 txn inh difference	DUX4 txn inh control
Cc1ccccc1S(=O)(=O)N1CCCCN2[C@H](C1)[C@@H](c1ccc(-c3cccc(F)c3)cc1)[C@@H]2CO	7	4	3.6
COCC(=O)N1CC2(C1)[C@H](c1ccc(-c3cccc(F)c3)cc1)[C@H](CO)N2C(=O)C1CC1	6	5	0.4
CCS(=O)(=O)Nc1ccc2c(c1)C(=O)N(C)[C@H]1CC[C@H](CC(=O)NCCCN3CCOCC3)O[C@H]1CO2	1	1	-0.5
O=C(C1CCC1)N1CC2(C1)[C@@H](c1ccccc1)[C@@H](CO)N2C(=O)NC1CCCC1	-2	-1	-1.2
C[C@@H]1CN([C@@H](C)CO)C(=O)c2cc(NS(C)(=O)=O)ccc2O[C@@H](C)CCCCO[C@H]1CN(C)C(=O)Cc1ccccc1	-5	-11	5.7
C[C@H]1CN([C@@H](C)CO)C(=O)c2cc(-c3ccncc3)cnc2O[C@H]1CN(C)S(=O)(=O)c1ccccc1	-2	-6	3.7
CCCN1C[C@@H](C)[C@H](OC)CN(C)C(=O)c2cc(NC(=O)NC3CCCCC3)ccc2OC[C@H]1C	-7	-12	5.1
O=S(=O)(c1ccccc1F)N1CCCCN2[C@H](CO)[C@H](c3ccc(-c4cncnc4)cc3)[C@H]2C1	9	-4	13
Cc1ccccc1-c1ccc2c(c1)O[C@H](CN(C)C(=O)Nc1ccc(C(F)(F)F)cc1)[C@H](C)CN([C@H](C)CO)S2(=O)=O	1	-2	2.6
CO[C@@H](CN(C)C(=O)c1cc(Cl)cc(Cl)c1)[C@@H](C)CN(C(=O)Nc1ccc(F)cc1)[C@H](C)CO	4	3	0.1
CN1C(=O)c2cc(NC(=O)c3cccs3)ccc2OC[C@H]2O[C@@H](CC(=O)NCC(F)(F)F)CC[C@@H]21	-4	-1	-3.2
O=C(C[C@H]1CC[C@H]2[C@@H](COC[C@@H](O)CN2S(=O)(=O)c2ccccc2F)O1)N1CCC(Cc2ccccc2)CC1	?	·	·
O=C(c1ccccn1)N1C[C@H]2[C@@H](c3ccccc31)[C@@H](CO)N2C(=O)c1ccccn1	-5	-7	1.3
CO[C@@H](CN(C)C(=O)c1ccccc1F)[C@@H](C)CN([C@@H](C)CO)S(=O)(=O)c1ccc(C)cc1	4	0	4.4
CO[C@@H]1CN(C)C(=O)c2cc(NS(=O)(=O)c3cn(C)cn3)ccc2OC[C@@H](C)N(C)C[C@@H]1C	4	-5	8.6
COc1ccc(-c2ccc([C@@H]3[C@@H](CO)N(C(=O)C4CCC4)[C@H]3C#N)cc2)cc1	0	1	-1.2
COc1cccc(S(=O)(=O)N2CCCCN3[C@H](CO)[C@@H](c4ccc(C#CCC(C)C)cc4)[C@@H]3C2)c1	?	·	·
O=C(NCCN1CCCC1)[C@H]1[C@H](CO)[C@H]2Cn3c(cccc3=O)[C@@H]1N2C(=O)NC1CCCC1	-4	-9	5.3
CN1C(=O)c2cc(NS(C)(=O)=O)ccc2OC[C@@H]2O[C@H](CC(=O)NCc3ccccc3)CC[C@@H]21	-2	-2	0.7
N#C[C@H]1[C@H](c2ccccc2-c2ccc(F)cc2)[C@H](CO)N1c1ncc(-c2ccccc2)s1	-4	12	-16
O=C(Cc1ccccc1)N1C[C@H]2[C@@H](c3ccccc31)[C@@H](CO)N2C(=O)Cc1ccccc1	4	3	1.2
COc1ccc(C#Cc2ccc3c(c2)O[C@H](CN(C)C(=O)NC2CCCCC2)[C@H](C)CN([C@@H](C)CO)S3(=O)=O)cc1	3	0	2.9
CCC(=O)N1CC(=O)N2[C@H](C1)[C@@H](c1ccc(-c3ccccc3F)cc1)[C@@H]2CO	?	·	·
Cc1ccc(-c2ccc3c(c2)O[C@@H](CN(C)Cc2ccccn2)[C@@H](C)CN([C@@H](C)CO)S3(=O)=O)cc1	-7	-3	-3.7
O=C(Cc1ccccn1)N[C@H]1CC[C@@H](CCNS(=O)(=O)c2cccc(F)c2)O[C@@H]1CO	1	3	-2.0
Next section:
SMILES	DUX4 txn inh	DUX4 txn inh difference	DUX4 txn inh control
C/C=C/c1ccc([C@H]2[C@H](CO)N3C(=O)CN(C(=O)c4ccncc4)C[C@@H]23)cc1	4	-10	15
O=C(Nc1cc(F)ccc1F)N1CCCCN2[C@H](CO)[C@@H](c3ccc(-c4cccnc4)cc3)[C@@H]2C1	?	·	·
CC(=O)N(C)C[C@H]1OCc2ccccc2-c2ccccc2C(=O)N([C@@H](C)CO)C[C@@H]1C	18	16	1.1
C[C@@H]1CN([C@H](C)CO)C(=O)c2c(c3ccccc3n2C)-c2ccccc2CO[C@H]1CN(C)C(=O)NC1CCCCC1	6	-3	8.4
COc1ccc(CN2C[C@H](O)COC[C@@H]3O[C@@H](CC(=O)NCc4ccccc4Cl)CC[C@H]32)cc1	8	5	2.3
COc1cccc(S(=O)(=O)N(C)C[C@H]2OCc3cn(nn3)CCCC(=O)N([C@H](C)CO)C[C@H]2C)c1	9	3	5.9
C[C@@H](NC(=O)[C@@H]1[C@@H](CO)[C@@H]2Cn3c(ccc(-c4ccccc4F)c3=O)[C@H]1N2)c1ccccc1	-3	3	-6.4
O=C(C[C@@H]1CC[C@H]2[C@@H](COC[C@H](O)CN2C(=O)c2ccccc2F)O1)NCc1ccc(Cl)cc1	-9	-4	-5.3
CS(=O)(=O)Nc1ccc2c(c1)[C@@H]1C[C@@H](CC(=O)NCc3ccncc3)O[C@H](CO)[C@@H]1O2	5	3	2.6
O=C(O)C[C@@H]1C=C[C@@H](NC(=O)Nc2cc(F)ccc2F)[C@H](CO)O1	2	-1	2.8
CCS(=O)(=O)N1CCC2(CC1)CN(S(=O)(=O)c1cn(C)cn1)[C@@H](CO)c1[nH]c3cc(OC)ccc3c12	14	1	12
CCCNC(=O)C[C@@H]1CC[C@H]2[C@@H](COc3ccc(NC(=O)Nc4c(C)noc4C)cc3C(=O)N2C)O1	1	-1	2.0
CS(=O)(=O)Nc1ccc2c(c1)[C@H]1C[C@@H](CC(=O)NCc3cc(F)ccc3F)O[C@H](CO)[C@H]1O2	3	5	-2.0
CC=Cc1ccc2n(c1=O)C[C@@H]1[C@@H](CO)[C@H](C(=O)NCC3CC3)N(Cc3ccccc3)[C@H]21 (mixture of isomers)	-5	-1	-3.5
C[C@H](O)C#Cc1ccc([C@H]2[C@H](CO)N3CCCCN(C(=O)Nc4ccccc4)C[C@@H]23)cc1	5	16	-11
CCS(=O)(=O)Nc1ccc2c(c1)C(=O)N(C)C[C@H](OC)[C@H](C)CN(C(=O)CN(C)C)[C@H](C)CO2	5	0	5.6
COc1ccc2c3c([nH]c2c1)[C@@H](CO)N(C(=O)c1ccccn1)CC31CCN(C(=O)C2CC2)CC1	-1	2	-2.9
Cc1ccc(S(=O)(=O)Nc2ccc3c(c2)C(=O)N([C@@H](C)CO)C[C@H](C)[C@H](CN(C)Cc2ccc4c(c2)OCO4)OCCCC[C@H](C)O3)cc1	3	-3	5.9
CCC(=O)N1CC2(CCN(Cc3ccccc3Cl)CC2)c2c([nH]c3cc(OC)ccc23)[C@H]1CO	?	·	·
CC(=O)N1[C@@H]2Cn3c(ccc(-c4cccnc4)c3=O)[C@H]1[C@@H](C(=O)NC1Cc3ccccc3C1)[C@@H]2CO	-2	1	-3.2
CCS(=O)(=O)N1[C@@H](CO)[C@@H](c2ccccc2)C12CN(C(=O)C1CC1)C2	10	5	4.8
Cc1ccc(S(=O)(=O)Nc2ccc3c(c2)CC(=O)N([C@@H](C)CO)C[C@H](C)[C@H](CN(C)C(=O)Nc2ccc4c(c2)OCO4)O3)cc1	-6	-3	-2.7
C[C@H](NC(=O)C[C@H]1CC[C@H]2[C@@H](COC[C@@H](O)CN2C)O1)c1ccccc1	3	6	-2.8
Cc1ccccc1S(=O)(=O)N1CC(=O)N2[C@H](CO)[C@@H](c3ccc(C#CCC(C)C)cc3)[C@H]2C1	-4	-8	4.2
COCC(=O)Nc1ccc2c(c1)C(=O)N(C)C[C@H](OC)[C@H](C)CN(C(C)=O)[C@@H](C)CO2	-1	-4	3.6
Other compounds follow.
SMILES	DUX4 txn inh	DUX4 txn inh difference	DUX4 txn inh control
COCC#Cc1ccc([C@H]2[C@@H](C#N)N(C(=O)Cc3ccccc3)[C@@H]2CO)cc1	-1	1	-2.2
CNC[C@H]1Oc2c(NC(=O)NC3CCCCC3)cccc2C(=O)N([C@H](C)CO)C[C@@H]1C	1	0	1.0
C[C@H](NC(=O)C[C@H]1CC[C@@H]2[C@H](COC[C@@H](O)CN2Cc2cc(F)ccc2F)O1)c1ccccc1	2	1	0.8
CCCC(=O)N1CC2(C1)CN(S(C)(=O)=O)[C@H](CO)c1c2c2ccc(OC)cc2n1C	-3	-14	11
C[C@H]1CCCCO[C@H](CN(C)C(=O)CCC(F)(F)F)[C@@H](C)CN([C@@H](C)CO)C(=O)c2cc(NC(=O)C3CCCCC3)ccc2O1	-2	-1	-1.7
CCCNC(=O)N1C[C@H](O)COC[C@H]2O[C@H](CC(=O)N3CCCCC3)CC[C@@H]21	0	2	-2.0
N#C[C@@H]1[C@H](c2ccc(C3=CCCC3)cc2)[C@@H](CO)N1C(=O)c1cccc(F)c1	-5	0	-4.4
CC(=O)N(C)C[C@H]1OCc2ccccc2-c2c(n(C)c3ccccc23)C(=O)N([C@@H](C)CO)C[C@@H]1C	10	6	4.0
COCC(=O)NC[C@H]1N[C@H](CO)[C@@H]1c1ccc(C2=CCCCC2)cc1	4	1	3.4
Cc1ccccc1S(=O)(=O)N1CC[C@@H]2[C@@H](CO)Nc3ccc(-c4cccc(C#N)c4)cc3[C@@H]21	?	·	·
C[C@H]1CN([C@@H](C)CO)C(=O)c2c(c3ccccc3n2C)-c2ccccc2CO[C@@H]1CN(C)Cc1ccc(F)cc1	?	·	·
O=C(Nc1ccccc1Cl)N1C[C@H]2[C@@H](c3ccccc31)[C@H](CO)N2Cc1ccccc1	0	-1	1.2
CC(=O)N1CCCCN2[C@H](C1)[C@H](c1ccc(-c3ccccc3)cc1)[C@@H]2CO	10	21	-11
CO[C@H]1CC[C@H]2CCOc3c(C#N)cccc3C(=O)N(C)C[C@H](OC)[C@@H](C)C(=O)N(C)C[C@@H]1O2	0	-2	2.1
COCC(=O)N1CCCCN2[C@@H](CO)[C@@H](c3ccc(-c4cccc(C)c4)cc3)[C@@H]2C1	16	4	12
CCCC#Cc1ccc2c(c1)O[C@@H](CN(C)C(=O)Nc1ccc(OC)cc1)[C@@H](C)CN([C@H](C)CO)S2(=O)=O	0	-3	2.3
COc1cccc(-c2ccc([C@@H]3[C@@H](C#N)N(C(=O)c4ccccn4)[C@@H]3CO)cc2)c1	-4	0	-3.2
COC(=O)C[C@@H]1C[C@H]2c3cc(NC(=O)NC4CCCCC4)ccc3O[C@H]2[C@H](CO)O1	12	12	0.0
COc1ccc2c3c(n(C)c2c1)[C@@H](CO)N(C(C)=O)CC31CN(Cc2ccc(Cl)cc2)C1	-9	-8	-0.5
O=C(C1CCOCC1)N1[C@H](CO)[C@@H](c2ccccc2)C12CN(CCC(F)(F)F)C2	1	-7	8.1
COc1ccc(S(=O)(=O)Nc2ccc3c(c2)C(=O)N([C@H](C)CO)C[C@H](C)[C@@H](CN(C)C(=O)Nc2cccc4ccccc24)OCCCC[C@@H](C)O3)cc1	?	·	·
CO[C@H]1CN(C)C(=O)c2cc(NC(=O)C3CCCC3)ccc2OC[C@@H](C)N(C(=O)CC2CC2)C[C@H]1C	3	9	-6.6
COCCN(C[C@@H]1[C@@H](c2ccccc2)[C@H](CO)N1C(C)=O)C(=O)c1ccccc1	-4	-6	1.8

Only part of the results is shown (hit frequency here may not be typical).
